Mtb growth – M. tuberculosis H37Rv growth inhibitors, H37Rv strain (AID 1626) | inhibition, % at 10 µM; hits with a dose series show IC50 in µM | M. tuberculosis H37Rv growth inhibition; higher % means a stronger effect | actives 0.95% (n = 220,000);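 active means confirmed in a dose series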;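 further: bacteria incubated seven days before Alamar blue readout; 0% = bacteria only wells and 100% = bacteria with antibiotic wells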
Mtb betalactam – beta-lactam sensitization of Mtb H37Rv, H37Rv; M. tuberculosis H37Rv growth with meropenem, percent inhibition; hits of this screen are not shown here; inhibition, % at 25 µM; actives 0.27% (n = 330,000); AID 434955, 2010;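 active means about 74% or more and at least 40 points above the plate without the antibiotic, then above 30% in a dose series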;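 further: growth measured after seven days incubation then overnight dye step; 0% = bacteria only wells and 100% = bacteria with antibiotic; twin plates without the antibiotic show which effects depend on it; some results filed as inactive read as strong as hits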
YopH PTP inh – YopH tyrosine phosphatase inhibitors, primary screen, biochemical, fluorescence Ex485/Em525 | actives 0.16% (n = 140,000) | YopH tyrosine phosphatase [Yersinia enterocolitica] | inhibition, %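 (about 10 µM by stock and volumes)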;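 active means inhibition of 50% or more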;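 further: controls were vehicle for no effect and minimum signal wells for full effect; inactives centre near -20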
Arbovirus inh – antivirals against arbovirus infection, primary screen, cell-based, full library, 10K replicate subset. inhibition, % at 10 µM. arbovirus infection cell-based antiviral screen. actives 0.37% (n = 200,000). AID 1251, 2008;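 active means inhibition from about 30%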;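 further: bluetongue infection of BSR cells; cell survival read as ATP light after 72 h; 0% = infected wells without compound and 100% = uninfected wells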
RecA intein inh – Mtb RecA intein splicing inhibitors, primary screen, biochemical, fluorescence, HTS. inhibition, %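 (about 9 µM by stock and volumes)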. cell-free RecA intein splicing. actives 0.75% (n = 290,000). AID 2221, 2009. Protein RecA (Mycobacterium tuberculosis (strain ATCC 25618 / H37Rv)), P9WHJ3; in the data active means inhibition above about 30%;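 further: 0% = vehicle wells and 100% = reference inhibitor control wells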
Target sequence (P9WHJ3 whole entry, looked up): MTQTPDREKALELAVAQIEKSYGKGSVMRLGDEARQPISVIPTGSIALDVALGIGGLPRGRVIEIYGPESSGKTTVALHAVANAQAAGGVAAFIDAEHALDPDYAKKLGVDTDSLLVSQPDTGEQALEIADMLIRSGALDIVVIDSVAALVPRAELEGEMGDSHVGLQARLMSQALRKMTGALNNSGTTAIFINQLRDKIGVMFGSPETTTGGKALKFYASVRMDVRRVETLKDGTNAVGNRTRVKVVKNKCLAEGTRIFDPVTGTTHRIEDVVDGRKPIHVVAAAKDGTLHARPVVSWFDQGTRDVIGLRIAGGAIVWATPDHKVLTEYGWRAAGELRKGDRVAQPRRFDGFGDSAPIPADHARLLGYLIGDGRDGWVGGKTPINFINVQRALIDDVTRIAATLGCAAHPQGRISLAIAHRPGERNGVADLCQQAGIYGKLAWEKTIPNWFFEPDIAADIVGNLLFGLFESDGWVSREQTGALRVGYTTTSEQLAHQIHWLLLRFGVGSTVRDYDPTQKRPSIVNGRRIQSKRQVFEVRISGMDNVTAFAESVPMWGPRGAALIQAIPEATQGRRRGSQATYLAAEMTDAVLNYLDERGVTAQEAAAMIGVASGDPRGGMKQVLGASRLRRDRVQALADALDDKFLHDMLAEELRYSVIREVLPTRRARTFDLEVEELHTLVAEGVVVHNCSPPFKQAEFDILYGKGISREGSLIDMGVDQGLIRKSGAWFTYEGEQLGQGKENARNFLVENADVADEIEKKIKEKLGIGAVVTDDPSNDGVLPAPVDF
Arbovirus inh repeat – second read-out of Arbovirus inh, no call of its own (marks repeat the call); inhibition, %; measured here: 10K subset replicate screen; many hits read low in the repeat;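 first of two repeat runs on a subset; 0% = infected and 100% = uninfected wells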
The depositor's hits bear a star; nt = not tested or not shown. Not all compounds are listed, so the mix of outcomes need not match the whole.

SMILES	Mtb growth	Mtb betalactam	YopH PTP inh	Arbovirus inh	RecA intein inh	others
c1ccc2sc(C3CCN(Cc4nnnn4Cc4ccc5c(c4)OCO5)CC3)nc2c1	-6.3%	-1.0	-17.9	-5.1	2.3
O=C(CSc1nnc(C2CCCCC2)n1Cc1ccccc1)NCc1ccco1	-4.8%	4.8	-14.0	-6.7	5.0
C/C=C(\C)c1nnc(NC(=O)OCC)s1	8.2%	-7.1	27.8	1.3	1.0
CC(C)(C)C(=O)Nc1ncc(C(F)(F)F)cc1Cl	-3.7%	1.9	8.3	12.3	0.7
COc1ccc(NC(=O)CNC(c2ccccc2)c2ccccc2)cc1	nt	-3.9	nt	nt	4.4
COc1ccc(C(=O)OCC(=O)NC2CC2)cc1[N+](=O)[O-]	1.3%	2.9	-27.7	1.3	2.3
COC(=O)CN1C(=O)C(C)(C)Oc2ccc(C(=O)NC3CC3)cc21	-10.1%	-2.8	-40.6	-0.9	-0.2
CN(CC(=O)NCc1ccccc1)S(=O)(=O)c1cnc[nH]1	-7.3%	-0.2	-9.0	0.7	-1.9
COc1ccc(-c2c[n+](CC(=O)N3c4ccccc4Sc4ccccc43)c3n2CCC3)cc1	78.6%	93.0	nt	nt	1.8
CCc1ccc(OCC(O)CN2CCN(c3ccccc3)CC2)cc1 (configuration not stated)	11.6%	9.3	-34.8	-2.1	0.9
COc1ccc(N2CCN(C(=O)c3c(-c4ccccc4)noc3C)CC2)cc1	-4.5%	1.9	3.4	-4.8	nt	Arbovirus inh repeat=3.4
N#CNC(=Nc1ccc(F)cc1)SCc1ccccc1	3.0%	-4.8	0.0	-1.2	1.4
Cc1cc(F)ccc1S(=O)(=O)N1CCCOC1CNC(=O)C(=O)NCc1ccncc1 (configuration not stated)	nt	-21.5	nt	nt	0.5
COc1cc(C(=O)Nc2nncs2)cc(OC)c1OC	-3.9%	0.4	-43.1	-2.2	-0.1
O=c1[nH]cnc2c([N+](=O)[O-])cccc12	-13.0%	-4.0	-29.2	-2.5	-3.2
CCc1ccc(CCC(=O)Nc2ccc(C)c(C)c2)o1	14.8µM*	98.7	-15.0	-5.8	2.6
CCOC(=O)CN(C(=O)CSc1nnc(-c2ccncc2)n1CCCOC)c1ccccc1	-6.6%	-4.4	-7.6	-3.1	2.7
CCOC(=O)CSc1cc(C)c(C#N)c2nc3ccccc3n12	-9.5%	30.9	nt	-4.6	-11.0
CCOC(=O)C1CCCN(S(=O)(=O)c2ccc(OC)cc2)C1 (configuration not stated)	1.3%	5.8	2.3	-1.1	0.7
COc1cc(OC)c2c(C)cc(=O)oc2c1C(CCN1CCOCC1)c1ccc(N(C)C)cc1 (configuration not stated)	-12.1%	-6.7	nt	nt	0.3
COc1ccc(-c2csc3ncnc(N4CCN(c5cccc(C)c5C)CC4)c23)cc1	nt	10.3	nt	nt	3.6
CC(Oc1ccc(F)cc1)C(=O)Nc1cc(Cl)ccc1-n1cncn1 (configuration not stated)	nt	-4.5	nt	nt	0.3
Cc1ccc(N(Cc2ccc(C(=O)NCCSc3ccccn3)cc2)S(C)(=O)=O)cc1C	7.7%	-0.5	-23.7	-1.9	2.2
C=CCNC(=O)c1ccccc1NC(=O)COc1ccc(OC)cc1	10.2%	-3.4	nt	-3.4	0.0
CN(C)CC(C)(C)CNC(=O)C1CCN(CCCc2ccccc2)CC1	nt	-3.7	nt	nt	-0.6

Further structures.
SMILES	Mtb growth	Mtb betalactam	YopH PTP inh	Arbovirus inh	RecA intein inh	others
O=[N+]([O-])c1cccc(CN2[C@@H](Cc3ccccc3)COCCS2(=O)=O)c1	-10.9%	-4.7	nt	nt	0.4
O=C(NN1C(=O)c2ccccc2NC1c1ccco1)c1ccc(Br)cc1 (configuration not stated)	4.4%	0.2	nt	0.0	1.5
CCOCc1c(C(=O)OCC(=O)/C(C#N)=C(\C)N)oc2ccccc12	5.6%	7.1	nt	-0.7	-2.0
Cc1ccc(C(=O)C(C)Sc2nnc(N)s2)cc1 (configuration not stated)	-0.5%	-9.1	nt	8.9	0.2
CC(=O)C1=C(C)N(Cc2ccccc2)C(=O)N[C@@H]1c1cccc(C(F)(F)F)c1	-4.6%	-1.7	7.4	10.3	4.3
CN1CCN(c2ccc(Cl)cc2NC(=O)c2ccc(S(=O)(=O)N(C)C)cc2)CC1	-2.2%	-9.4	-13.6	0.2	0.4
CCC(=O)N1CCC2(CC1)Oc1ccc(F)cc1C(=O)C21CC(c2ccc(Cl)cc2)=NO1 (configuration not stated)	6.5%	88.8	nt	nt	11.2
COC(=O)c1ccc(-n2nnnc2SCC(=O)N2CCCCC2)cc1	-21.6%	2.2	-21.7	4.6	0.3	Arbovirus inh repeat=1.3
OCCNCc1cc(Br)ccc1OCc1ccc(F)cc1	4.1%	0.9	nt	-8.0	-3.3
CCc1ccc(OC)c(S(=O)(=O)Nc2ccc(Cc3ccncc3)cc2)c1	nt	-1.4	nt	nt	5.8
Cc1nc(N2CCN(C(c3ccccc3)c3ccccc3)CC2)[nH]c(=O)c1C	-10.6%	nt	-41.1	-3.3	4.5
COC(=O)/C(=C/c1cccc([N+](=O)[O-])c1)NC(=O)c1ccc(OC)cc1	-5.4%	-1.9	-13.6	1.9	0.2
CCOc1ccc(-c2c[n+](=O)c3c(n2[O-])CCCC3)c(OCC)c1	-5.3%	3.1	-18.5	9.9	-0.6
CC(=O)Nc1ccc(-n2c(C)ccc2-c2ccccc2)cc1	nt	-4.6	nt	nt	3.5
CCCCC12CN3CCN(CC(C3)/C1=N\NC(=O)c1ccccc1N)C2	8.5%	-5.0	-43.3	0.2	-0.1
CC1CN(CC(O)COc2ccc(C(C)C)cc2)CC(C)O1 (configuration not stated)	10.6%	5.3	9.1	-0.7	-2.6
O=C(Nc1ccccc1)C1=C(O)CC(c2ccoc2)CC1=Nc1ccccc1 (configuration not stated)	-8.9%	-0.6	-9.5	-5.8	-0.1	Arbovirus inh repeat=-7.3
COc1ccc(NC(=O)N2CCC(NC(=O)c3ccco3)CC2)cc1	-4.3%	-3.3	-6.1	-4.8	1.6
CC(=O)Nc1ccc(CN2CCN(CC(C)C)C(CCO)C2)cc1 (configuration not stated)	-10.2%	-10.9	nt	3.1	-2.8
CN(C)C(=O)Oc1ccc2c(=O)c(Oc3ccccc3Br)coc2c1	nt	11.7	nt	nt	0.2
O=C(N/N=C/c1ccc([N+](=O)[O-])cc1)c1cnccn1	-8.8%	-0.6	nt	nt	0.4
CC(C)CC(=O)N1CCN(Cc2cccc([N+](=O)[O-])c2)CC1	-7.8%	-2.3	nt	-0.1	-1.7
CSc1ccc(/C=C/C(=O)NC23CC4CC(CC(C4)C2)C3)cc1	65.4%	nt	-29.0	-13.6	-2.4
CC(C)CC(=O)NC(=S)Nc1sc2c(c1C(N)=O)CCC2	-3.7%	-3.0	nt	-0.8	-1.7
CCn1cnc2sc(C(=O)N3CCN(Cc4ccc5c(c4)OCO5)CC3)c(C)c2c1=O	nt	-4.8	-34.6	2.9	-5.0

(cont.)
SMILES	Mtb growth	Mtb betalactam	YopH PTP inh	Arbovirus inh	RecA intein inh	others
Fc1ccc(CN(Cc2ccccc2)C(c2cccs2)c2nnnn2C2CCCCC2)cc1 (configuration not stated)	5.5%	3.9	-7.8	-14.3	4.8
Cc1cc(Br)ccc1NC(=O)CNC(=O)CSc1n[nH]c(N)n1	-5.5%	8.7	12.8	4.2	1.9
O=C1N(C2CCCC2)C[C@@H]2C[C@@H](c3cccn3-c3nccs3)N3CCC[C@@]123	3.9%	-2.8	nt	4.5	1.2
Fc1ccc(C2CC(c3ccco3)=Nc3ccccc3S2)cc1 (configuration not stated)	33.2%	87.5	nt	-1.4	-1.7
O=c1[nH]c(=S)[nH]nc1Cc1ccc(Cl)c(Cl)c1	nt	-3.5	nt	nt	-0.7
Cn1c(=O)c(-c2ccccc2)c(O)c2ccccc21	-4.2%	93.1	nt	6.3	-2.6
Cc1cccc(NS(=O)(=O)c2nnc(NC(=O)c3ccc(Cl)cc3)s2)c1	nt	-0.3	nt	nt	3.7
O=S1(=O)CC(O)C(N=Nc2c(O)n(Cc3ccccc3)c3ccccc23)C1 (configuration not stated)	4.7%	0.8	nt	nt	-1.5
CCc1cc(=O)oc2cc(C)cc(OC(C)C(=O)NCCN3CCOCC3)c12 (configuration not stated)	nt	-0.4	nt	nt	1.0
COc1ccc(/C=N/Nc2ccc(C(F)(F)F)cc2[N+](=O)[O-])cc1	7.5%	6.5	-22.0	0.6	-2.0
COC(=O)c1cc(COC(=O)c2nc3nc(C)cc(C)n3n2)oc1C	3.0%	3.8	nt	17.1	0.9
O=C(C1=C[C@H](C2CC2)C[C@H](OCc2ccc(CO)cc2)O1)N1CCN(Cc2ccccc2)CC1	-5.3%	10.4	nt	4.3	1.1
COc1ccc(NC(=O)C(CCS(C)(=O)=O)N2C(=O)c3ccccc3C2=O)cc1 (configuration not stated)	-11.2%	-7.8	-23.5	6.9	-2.2
CCC(=O)N1CCc2cc(Br)cc(S(=O)(=O)C3(C(=O)OC)CC3)c21	5.5%	1.4	-27.4	6.5	-3.6
CC1CCC/C=C/C2CC(O)CC2C(O)/C=C/C(=O)O1 (configuration not stated)	nt	-8.8	-23.5	-34.1	-3.7
CCCNS(=O)(=O)/C=C/c1ccccc1	0.1%	-12.3	nt	12.8	3.5
COc1ccccc1/C=C(/C(=O)OCC(N)=O)c1ccccc1	3.1%	-5.0	-31.6	0.5	-0.5
c1ccc(Cn2nnc3c(NCc4ccc5c(c4)OCO5)ncnc32)cc1	-2.1%	1.8	nt	nt	-6.7
COC(=O)c1ccccc1NC(=O)CSc1nnc(Cc2ccc(Cl)cc2)o1	-6.0%	50.8	-20.1	3.2	0.4
COc1ccc(CCC(=O)Nc2cnc3ccccc3c2)cc1	nt	89.8	nt	nt	-0.7
Cc1ccc(-n2cc3c(=O)n(C)c(=O)n(C)c3c2)cc1C	2.2%	61.5	-21.7	-7.0	3.0
O=C(NCC1CCCO1)C1CCN(C(=O)c2ccc(Cl)cc2)CC1 (configuration not stated)	-4.9%	-3.6	-33.9	-1.6	-0.7
NS(=O)(=O)c1ccc(CNS(=O)(=O)c2cc(C(=O)O)ccc2Cl)cc1	-4.3%	-2.2	nt	4.7	-3.2
O=C(NCCc1ccc(Cl)cc1)c1cnccn1	-7.2%	-5.5	nt	1.8	-0.2
CCCN(c1ccc(OCC)cc1)S(=O)(=O)c1ccc2c(c1)CCN2C(=O)CCC(=O)O	-2.4%	9.8	-39.9	2.2	-1.4

Looked up one by one from above (seven):
SMILES	Mtb growth	Mtb betalactam	YopH PTP inh	Arbovirus inh	RecA intein inh	others
COC(=O)c1ccc(-n2nnnc2SCC(=O)N2CCCCC2)cc1	-21.6%	2.2	-21.7	4.6	0.3	Arbovirus inh repeat=1.3
O=C(NN1C(=O)c2ccccc2NC1c1ccco1)c1ccc(Br)cc1 (configuration not stated)	4.4%	0.2	nt	0.0	1.5
CN(CC(=O)NCc1ccccc1)S(=O)(=O)c1cnc[nH]1	-7.3%	-0.2	-9.0	0.7	-1.9
COc1ccc(N2CCN(C(=O)c3c(-c4ccccc4)noc3C)CC2)cc1	-4.5%	1.9	3.4	-4.8	nt	Arbovirus inh repeat=3.4
CCc1ccc(CCC(=O)Nc2ccc(C)c(C)c2)o1	14.8µM*	98.7	-15.0	-5.8	2.6
O=C(Nc1ccccc1)C1=C(O)CC(c2ccoc2)CC1=Nc1ccccc1 (configuration not stated)	-8.9%	-0.6	-9.5	-5.8	-0.1	Arbovirus inh repeat=-7.3
CC1CCC/C=C/C2CC(O)CC2C(O)/C=C/C(=O)O1 (configuration not stated)	nt	-8.8	-23.5	-34.1	-3.7

Other results.
SMILES	Mtb growth	Mtb betalactam	YopH PTP inh	Arbovirus inh	RecA intein inh	others
Cc1ccc(CC(=O)Nc2cccc(S(=O)(=O)N3CCOCC3)c2)cc1	nt	-10.6	nt	nt	-0.6
CCC(=O)c1ccc(OCC(=O)OCC(=O)N(C)CC(=O)Nc2ccc(F)cc2)cc1	nt	-3.1	nt	nt	-1.7
O=c1c(OC2OC(CO)C(O)C(O)C2OC2OC(CO)C(O)C(O)C2O)c(-c2ccc(O)cc2)oc2cc(O)cc(O)c12 (configuration not stated)	9.7%	-6.0	nt	nt	nt
CCOC(=O)c1[nH]c2ccccc2c1NC(=O)C1CCCCC1	-2.3%	-5.4	32.6	-5.1	1.5
CN=C(C)c1c(O)c2ccccc2oc1=O	-1.3%	3.0	-34.8	2.6	0.5
COc1cccc(N2CCN(C(=O)c3ccc(CSc4nc5ccncc5[nH]4)cc3)CC2)c1	nt	-7.3	-2.5	15.7	-1.0

Reprinted from the entries so far for reference:
SMILES	Mtb growth	Mtb betalactam	YopH PTP inh	Arbovirus inh	RecA intein inh	others
Cc1ccc(CC(=O)Nc2cccc(S(=O)(=O)N3CCOCC3)c2)cc1	nt	-10.6	nt	nt	-0.6
CCC(=O)c1ccc(OCC(=O)OCC(=O)N(C)CC(=O)Nc2ccc(F)cc2)cc1	nt	-3.1	nt	nt	-1.7
